# Vaccinia mCherry = inhibitors of vaccinia virus infection (mCherry reporter signal). Vaccinia virus mCherry reporter infection, fluorescence; about a quarter of the inactives have no number. Potency, µM (doses to about 36.5 µM), for the others: at the top dose activity change, negative = inhibition, most hits filed as inhibitors. 310,000 compounds, 0.63% hits. AID 720579; active = well fitted inhibition curve with a large enough effect; inconclusive = small, poorly fitted or top-dose-only effect; inactive = no such curve, though single readings can be large or run the other way; tested in A549 cells; also: nearly all actives have a fitted effect of over 35% in size; inactives centre near -10
# Vaccinia Venus = inhibitors of vaccinia virus (Venus reporter); AID 720580; 330,000 compounds, 0.46% hits; Vaccinia virus Venus reporter expression, fluorescence; Potency, µM (top dose mostly 36.5 µM), for the others: at the top dose activity change, negative = inhibition, usual class: inhibitors; active means well fitted inhibition curve with a large enough effect; inconclusive means small, poorly fitted or top-dose-only effect; inactive means no such curve, though single readings can be large or run the other way; tested in A549 cells; also: nearly all actives have a fitted effect of over 30% in size; inactives centre near -10
# * marks the source's active call; other numbers are inactive results; i = inactive; ? = inconclusive; · = no result given; & = joins results of further samples; [ ] = dose if it differs, or a comment. % is scaled to controls: 0 for no effect and ±100 for the full control effect; potency is read from the fitted curve at half-maximal effect.
SMILES	Vaccinia mCherry	Vaccinia Venus
Nc1ncnc2c1ncn2[C@@H]1O[C@H](CNCc2ccc(OCC(=O)Nc3ccccn3)cc2)[C@@H](O)[C@H]1O	i	-3%
CN(C(=O)CSc1nc(N)cc(=O)[nH]1)C1CCCCC1	-14%	-6%
CCCCCOC(=O)CSc1ncnc2sc3c(c12)CCC(C)C3 (centres undefined)	-9%	-9%
OCC[C@H]1C[C@@H](O)[C@H](O)[C@@]2(Cc3ccccc3O2)O1	i	-8%
CC1Cc2ccccc2N1C(=O)CSc1nc2cc3c(cc2cc1C#N)OCO3 (centres undefined)	-9%	4%
CCC(C)(NC(=O)c1ccc(=O)[nH]c1)C(=O)NC1CCCC1 (centres undefined)	i	-3%
O=C(c1cnn2c(C(F)F)cc(-c3ccccc3)nc12)N1CCc2ccccc21	i	-12%
O=C(Nc1ccc(F)cc1)C1CCN(C(=O)c2ccc([N+](=O)[O-])cc2)CC1	-3%	-13%
CC1CC(=O)N(c2ccc(NCc3ccccc3Cl)c([N+](=O)[O-])c2)C1=O (centres undefined)	-17%	-17%
Cc1nn(-c2ccc(N3CCCCC3)nn2)c(C)c1CCC(=O)NCc1ccc(OC(C)C)cc1	-6%	-11%
C[C@H](CO)N1C[C@H](C)[C@@H](CN(C)S(C)(=O)=O)Oc2c(NC(=O)C3CC3)cccc2C1=O	-9%	-13%
N=c1ccccn1CC(O)COc1ccccc1 (centres undefined)	·	27%
CCCCNc1nc(CC)c2c(c1C#N)CCCC2	-9%[1.46 µM]	-8%
CC1=C(C(=O)OC(C)C)[C@@H](c2ccc(C)o2)NC(=O)N1	?	2%
O=C1CC(NC23CC4CC(CC(C4)C2)C3)C(=O)N1c1ccc2c(c1)OCO2 (centres undefined)	-15%	-10%
COc1ccc(C=C2OC(=O)C(C(C)=O)=C2O)cc1	i	-16%
COc1ccc(/C=C2/N=C3CCCCCN3C2=O)cc1	-3%	-16%
O=C(NCCc1c[nH]c2ccccc12)OCCSS(=O)(=O)O	-14%	-7%
O=C1c2cccc3cccc(c23)C(=O)N1Nc1ccccc1	-1%	-8%
CCOCCN1CCN(c2c(C)c(C)nc3cc(-c4cc(OC)cc(OC)c4)nn23)CC1	?	-27%
NC(=S)Nc1cccc(Cl)c1	i	-10%
O=C(Nc1ccc2c(c1)OCO2)c1cc(Cl)ccn1	-18%	-6%
CCCNC(=O)c1ccc(N2CCC3(CC2)CC(c2cccc(Br)c2)=NO3)c(NC(=O)c2cccc(C)c2)c1	1%	-14%
CC(=O)Nc1ccc(Cl)c(-c2nc3ncccc3o2)c1	-10%	-7%
COc1ccc(/C=C/C(=O)c2ccc(O)cc2)cc1COc1ccc(F)cc1	i	3%
O=C(CSCc1cnn(-c2ccccc2)c1-n1cccc1)NCc1ccccc1Br	-8%	-12%
CN(C)CCCN(C(=O)c1ccc(S(=O)(=O)N2CCCCCC2)cc1)c1nc2c(F)cc(F)cc2s1	-11%	-24%
COc1ccccc1-c1cc(C(F)(F)F)nc(N2CCCCC2)n1	i	-16%
O=C1c2ccccc2C(=O)N1CCc1nc2ccccc2c(=O)n1CCCn1ccnc1	·	-22%
O=C(OCCN=C1NS(=O)(=O)c2ccccc21)C1CC(=O)N(c2ccc(Cl)cc2)C1 (centres undefined)	-17%[1.46 µM]	-7%
O=C(Nc1ccc(Br)cc1)c1cccc(S(=O)(=O)N2CCc3ccccc32)c1	?	-22%
Cc1oc(-c2ccccc2F)nc1CS(=O)(=O)CC(=O)NCCCN1CCc2ccccc2C1	-13%	-13%
COc1ccc(/C=C/c2ccnc3ccccc23)cc1OC	-24%	-16%
CCN(CC)CCNC(=O)CCn1c(=O)c2cccn2c2cccnc21	6%	3%
O=C(CNS(=O)(=O)c1ccc(Br)s1)N1CCC(N2CCCCC2)CC1	·	6%
CCN(CC)CCCC(C)Nc1cc(/C=C/c2ccccc2Cl)nc2cc(Cl)ccc12 (centres undefined)	?	?
CC(C)(C)c1cc(-c2nc(N)nc(N)n2)cc(C(C)(C)C)c1	-18%	-17%
CCC(=NCCCO)c1c(O)n(-c2ccc(OC)cc2)c(=O)[nH]c1=O	·	-20%
O=S(=O)(c1ccccc1)N1CCN(C(=S)NCCc2ccccc2)CC1	-1%	-8%
O=C(NCc1ccc(F)cc1)N1[C@H]2CC[C@@H]1C=C(c1ccc(F)cc1OCc1ccccc1)C2	-2%	?
COc1ccc(/C(O)=C2/C(=O)C(=O)N(Cc3ccco3)C2c2cccs2)cc1 (centres undefined)	-10%	-10%
CCOc1ccc(S(=O)(=O)N2CCN=C2c2ccccc2)c(C)c1C	?	?
CCOC(=O)c1sc(=S)n(C)c1NC(=O)c1ccc(C(C)(C)C)cc1	-14%	-23%
CCn1nnc(NC(=O)c2ccc(-c3ccc(Cl)cc3)o2)n1	-7%	-6%
COC(=O)c1cccc(N=Cc2c(O)n(Cc3ccc(F)cc3)c(=O)[nH]c2=O)c1	i	19%
Cc1ccc(-n2ccnc(NCc3cccs3)c2=O)cc1C	i	-23%
CCCCNC(=O)CSc1nc2cc3c(cc2c(=O)n1CCCC(=O)NCc1ccc(OC)cc1)OCO3	-3%	-8%
CC(=O)N1CCc2cc(Br)cc(S(=O)(=O)CCC(=O)N3CCN(c4cccc(C)c4C)CC3)c21	?	-18%
Cc1cc(NC(=O)CN2C(=O)NC(C)(c3ccc(Cl)cc3)C2=O)no1 (centres undefined)	-11%	11%
O=C(CC1Nc2ccccc2NC1=O)Nc1ccc2c(c1)OCO2 (centres undefined)	-11%	6%
NC(=O)c1c(NC(=O)Cc2ccccc2)sc2c1CCN(Cc1ccccc1)C2	-26%	-27%
O=C(CSc1nc(Cc2ccccc2)nc2ccccc12)Nc1ccc2c(c1)OCCO2	-21%	-29%
CCCCCn1c(=O)[nH]c2cc(C(=O)N3CCN(c4cc(Cl)ccc4C)CC3)ccc2c1=O	?	?
CCC(C)[C@H]1COCCS(=O)(=O)N1Cc1ccccc1 (some centres undefined)	-22%	-14%
COc1ccc(Cc2nc3ccc(C(=O)N(C)CCc4cnn(C)c4)cc3o2)cc1OC	-19%	-14%
COc1cc(NC(=O)CCCl)cc(-n2cnnn2)c1	-19%	-10%
Cc1ccc(Nc2c(-c3ccc(C)cc3)nc3cnccn23)cc1	-14%	-5%
C/C(=N\NC(=O)c1ccc2c(c1)OCO2)c1ccc(NS(C)(=O)=O)cc1	?	-27%
COc1ccccc1N=NNc1ccc(S(=O)(=O)NC(C)=O)cc1	-1%	0%
COc1cccc(C(C(=O)NC2CCCCC2)N(C(=O)CNC(=O)c2ccco2)c2cccnc2)c1 (centres undefined)	i	6%

# Sorted by formula weight (rising): some entries from above
SMILES	Vaccinia mCherry	Vaccinia Venus
CC(C)(C)c1cc(-c2nc(N)nc(N)n2)cc(C(C)(C)C)c1	-18%	-17%
Cc1ccc(-n2ccnc(NCc3cccs3)c2=O)cc1C	i	-23%
O=C(CC1Nc2ccccc2NC1=O)Nc1ccc2c(c1)OCO2 (centres undefined)	-11%	6%
COc1ccccc1N=NNc1ccc(S(=O)(=O)NC(C)=O)cc1	-1%	0%
CCOc1ccc(S(=O)(=O)N2CCN=C2c2ccccc2)c(C)c1C	?	?
O=C(NCc1ccc(F)cc1)N1[C@H]2CC[C@@H]1C=C(c1ccc(F)cc1OCc1ccccc1)C2	-2%	?

# Further compounds.
# Value order: Vaccinia mCherry	Vaccinia Venus
CCCCOC(=O)CSC(=S)N(C)Cc1cccs1
    -11%	-4%
COc1ccccc1NC(=O)COC(=O)/C=C/c1ccccc1[N+](=O)[O-]
    -9%	1%
Cc1ccc(S(=O)(=O)N2CCN(C(=O)c3cccs3)CC2)c(C)c1
    -15%	-9%
Cc1ccccc1NC(=O)CSc1nc(=O)n(CCN2CCOCC2)c2c1CCC2
    2%[7.34 µM]	-6%[7.34 µM]
CCC1CCCCN1Cc1nc2ccccc2c(=O)n1CC(C)=O (centres undefined)
    i[7.34 µM]	-10%[7.34 µM]
CCOC(=O)C1(Cc2ccccc2C(F)(F)F)CCN(CC(O)CO)CC1 (centres undefined)
    i	-15%
CCN1C(=O)[C@H]2[C@@H](c3ccc(-c4ccc(OC)cc4)c(OC)c3)N3CCCC[C@@]3(C(=O)OC)[C@H]2C1=O
    ?	?
CCC1CN(C(=O)N2CCC(C(=O)NCCOC)CC2)c2ccccc2O1 (centres undefined)
    8%	-4%
CCOc1ccc(CCN2C(=O)C(=O)N([C@@H](Cc3ccccc3)CN3CCC[C@H]3CN3C(=O)C(=O)NC[C@@H]3Cc3ccc(O)cc3)C[C@@H]2CC(C)C)cc1
    -12%	-8%
COC(=O)c1ccc(NC(=O)CCn2cnnn2)cc1
    -3%	0%
COc1ccc(CC(=O)Nc2ccc(C(=O)NC(C)(C)C)cc2)cc1OC
    -10%	-8%
COc1cccc(N2CCN(C(=O)c3ccc(Cl)c(NC4=NC5CS(=O)(=O)CC5S4)c3)CC2)c1 (centres undefined)
    -20%	2%
CC(C)(C)c1ccc(C(=O)N2CCC2(C)C(=O)NCc2cccc3ccccc23)cc1 (centres undefined)
    0%	-16%
C[C@@H](C(=O)Nc1ccc(SC(F)F)cc1)N1C(=O)C2CCCCC2C1=O (some centres undefined)
    -18%	-5%
CCOP(=O)(OCC)/C(=C/N1CCCCC1)NC(=O)c1ccccc1
    i	3%
C=CCNS(=O)(=O)c1ccc2nsnc2c1
    -7%	-7%
CCC(C)NC(=O)C(Cc1ccccc1)NS(=O)(=O)c1ccc2c(c1)oc(=O)n2C (centres undefined)
    3%[7.34 µM]	13%[7.34 µM]
S=c1[nH]nc(CN2CCCCC2)n1Cc1ccccc1
    i	0%
Cc1nn(-c2cccc(Cl)c2)c2nc(C(F)(F)F)[nH]c(=O)c12
    -9%	-3%
CCC1CN(S(=O)(=O)c2ccc3c(c2)NC(=O)CC(=O)N3)c2cc(Cl)ccc2O1 (centres undefined)
    -26%&-5%	-22%&-10%

# A few values from the results shown.
# For Vaccinia Venus, CCOc1ccc(CCN2C(=O)C(=O)N([C@@H](Cc3ccccc3)CN3CCC[C@H]3CN3C(=O)C(=O)NC[C@@H]3Cc3ccc(O)cc3)C[C@@H]2CC(C)C)cc1 shows -8%
# For Vaccinia mCherry, CC(C)(C)c1ccc(C(=O)N2CCC2(C)C(=O)NCc2cccc3ccccc23)cc1 (centres undefined) shows 0%

# More entries.
# Value order: Vaccinia mCherry	Vaccinia Venus
CCOC(=O)C1C(c2cccs2)NC(=O)N(C)C1(O)C(F)(F)F (centres undefined)
    -19%	-11%
O=C(Nc1ccc2nc3n(c(=O)c2c1)CCCC3)c1ccc(Cl)nc1
    1%	3%
Cc1nn(C)c2c1c(-c1ccccc1)cc(=O)n2CC(=O)Nc1ccccc1C(F)(F)F
    -5%	4%
CCOc1ccc(CCNC(=O)CCc2c(C)nc3c4c(C)cc(C)nc4nn3c2C)cc1
    -22%	-19%
Cc1ccc(-n2ncc3c(=O)n(CC(=O)N4CCCc5ccccc54)cnc32)cc1C
    -12%	-11%
CCC1SC2=NC(C)=C(C(=O)OCCOC)C(/C=C/c3ccccc3OC)N2C1=O (centres undefined)
    -17%	-11%
O=C(CN(CCc1ccccc1)C(=O)Cn1nnc(-c2cccs2)n1)NCc1ccco1
    -5%	-1%
CC1Cn2c(Cc3ccccc3)nnc2S1 (centres undefined)
    27%	7%
CCOCc1cnc(C)nc1NCC(=O)c1c(C)[nH]c2cc(C)ccc12
    -20%	-13%
COCCOC(=O)C1=C(C)NC(SCC(=O)NC(C)(C)C)=C(C#N)C1c1ccco1 (centres undefined)
    18%	-16%
C=CCN(C(=O)c1csnn1)C(C(=O)NC(C)(C)C)c1ccncc1 (centres undefined)
    i	-10%
CCOC(=O)c1[nH]c(C)c(CCC(=O)N2CCN(c3ccc(OC)cc3)CC2)c1C
    8%	-5%
Nn1c(SCC(=O)Nc2cc(C(F)(F)F)ccc2Cl)nncc1=O
    i	-5%
Clc1cccc(CNc2ccn3nc(-c4ccc(OCCN5CCOCC5)cc4)cc3n2)c1
    -13%	-21%
O=C(Cn1c(-c2cscn2)nc2ccccc21)Nc1ccc(Cl)cc1
    ·	-17%
Cc1ccc(/C(=N\O)c2oc3c(C)c4oc(=O)cc(C)c4cc3c2C)cc1
    ?	?
Cc1ccc(CSc2ccc(-c3ccco3)nn2)cc1
    i	-7%
Cc1cc(NC(=O)/C=C/C(=O)N(c2ccccc2C)C(C(=O)NC2CCCC2)c2ccc(F)cc2)no1 (centres undefined)
    -14%	-24%
O=C(CNC(=O)c1ccccc1F)OCc1cc(=O)n2nc(C3CC3)sc2n1
    -2%	-4%
Cc1ccc2cc(CN(CCCO)S(=O)(=O)c3cccc4nsnc34)c(=O)[nH]c2c1C
    i	-15%
O=C(NC(=S)Nc1ccccc1N1CCCCC1)c1ccco1
    i	0%
COc1ccc(C(=O)NCC2CCCN2S(=O)(=O)c2cccs2)cc1OC (centres undefined)
    i	-19%
CC(=O)Nc1ccc(N(C(=O)c2ccco2)C(C(=O)NC2CCCC2)c2ccc(N3CCOCC3)cc2)cc1 (centres undefined)
    i	-9%
O=C(NCCNS(=O)(=O)c1ccc(C(F)(F)F)cc1)N1CCOCC1
    i	9%
COc1ccc(-c2ccc(C#N)c(SCC(=O)Nc3sc4c(c3C#N)CCC4)n2)cc1
    -7%	-8%
COCCCNc1nc(NCc2ccccc2OC)c2cnn(C)c2n1
    -14%	-18%
Cc1c(Cl)cccc1NC(=S)C(=C([O-])c1ccc(Cl)s1)[n+]1ccccc1
    -20%	14%
